DUX4 txn inh – inhibitors of DUX4-driven ZSCAN4 reporter expression, primary screen, 293T cells, Gaussia and Italica luciferase | hit rate 0.8% among 37,000 | 293T-iDUX4 ZSCAN4-Gaussia luciferase reporter, 24 h; hits give low values | activity change, negative = inhibition, % (no concentration beside the values);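 active = -10% or lower and over 25 points stronger than a control reporter; inconclusive = -10% or lower with a smaller gap; inactive = above -10%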;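 also: 0% = median of neutral control wells and -100% = median of positive control wells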
DUX4 txn inh difference – also measured in DUX4 txn inh; calls as there; Gaussia minus Italica difference, %; measured here: selective DUX4 reporter inhibition;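 worked out from the two reporters; negative = selective loss of the DUX4 reporter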
DUX4 txn inh control – also measured in DUX4 txn inh; calls as there; activity change, negative = inhibition, %; measured here: Italica tet-on control reporter;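 0 = neutral control and -100 = positive control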
Active calls of the source: *; ? = inconclusive; . = no result given.

SMILES	DUX4 txn inh	DUX4 txn inh difference	DUX4 txn inh control
C[C@@H]1CN([C@H](C)CO)C(=O)c2ccccc2-c2ccccc2CO[C@H]1CN(C)C(=O)[C@H](C)c1ccccc1	1	-3	4.4
CO[C@H]1CN(C)C(=O)c2cc(NS(=O)(=O)c3cn(C)cn3)ccc2OC[C@@H](C)N(C)C[C@H]1C	-1	-3	1.7
CN(C)C(=O)[C@H]1[C@H](CO)[C@H]2Cn3c(ccc(-c4ccncc4)c3=O)[C@@H]1N2CC1CCCC1	1	-6	6.5
COc1ccccc1CNC(=O)C[C@@H]1C[C@H]2c3cc(NC(=O)Nc4ccccc4F)ccc3O[C@H]2[C@@H](CO)O1	-3	-8	4.3
O=C(NCCc1ccccc1)[C@@H]1N[C@@H]2c3ccc(-c4ccccc4)c(=O)n3C[C@@H]2[C@H]1CO	-5	-2	-3.2
O=C(C[C@@H]1C[C@@H]2c3cc(NC(=O)Cc4ccncc4)ccc3O[C@@H]2[C@@H](CO)O1)NCc1cccnc1	6	5	1.4
CNC[C@@H]1OCc2ccccc2-c2c(n(C)c3ccccc23)C(=O)N([C@@H](C)CO)C[C@@H]1C	-8	-6	-1.8
CC1C=NC(S(=O)(=O)N2CC[C@@H]3[C@H](CO)N(C)c4ccc(C5=CCCCC5)cc4[C@@H]32)=N1 (stereo partly drawn)	16	14	1.9
C[C@@H]1CN([C@@H](C)CO)S(=O)(=O)c2ccc(C#CC3CCCC3)cc2O[C@H]1CN(C)C(=O)Nc1cc(F)ccc1F	0	-6	6.0
COc1cccc(-c2ccc3c(c2)[C@@H]2[C@@H](CCN2S(=O)(=O)c2ccccc2F)[C@H](CO)N3C)c1	?	.	.
CN(C)CC(=O)N1[C@H](C#N)[C@@H](c2ccc(C#CC3CC3)cc2)[C@H]1CO	-1	7	-7.8
O=C(C[C@H]1C=C[C@@H](NC(=O)c2ccc(F)cc2)[C@H](CO)O1)NCCc1ccncc1	-1	-6	4.7
CC(C)[C@H]1COCc2cn(nn2)CC[C@@H](Cc2ccc(Cl)cc2)C(=O)N1	-1	-2	1.2
CN1c2ccc(-c3ccccc3)cc2[C@@H]2[C@@H](CCN2C(=O)Cc2cccnc2)[C@@H]1CO	10	3	6.8
C[C@@H]1CN([C@H](C)CO)S(=O)(=O)c2ccc(/C=C/c3ccccc3)cc2O[C@H]1CN(C)Cc1cccnc1	-2	0	-1.3
COCC(=O)N1[C@H](C(=O)NCc2ccccc2Cl)[C@@H](CO)[C@@H]2Cn3c(cccc3=O)[C@@H]21	-2	-1	-1.9
O=C(C[C@H]1C[C@H]2c3cc(NC(=O)C4CCC4)ccc3O[C@H]2[C@@H](CO)O1)NCCc1ccccc1	?	.	.
COCC(=O)N1[C@H](CO)[C@@H](c2ccccc2-c2ccccc2F)[C@@H]1C#N	9	3	6.1
CN1c2ccc(C3=CCCCC3)cc2[C@@H]2[C@@H](CCN2C(=O)C2CCOCC2)[C@H]1CO	5	-7	13
CC(C)NC(=O)N1C[C@H]2[C@@H](c3ccccc31)[C@H](CO)N2C(=O)Nc1ccccc1	-8	-9	0.5
CCCNC(=O)C[C@H]1CC[C@@H]2[C@H](COC[C@H](O)CN2C(=O)c2ccccn2)O1	7	1	5.3
COc1ccc2c3c(n(C)c2c1)[C@H](CO)N(C(=O)c1ccc(F)cc1)CC31CCN(C)CC1	2	5	-3.2
COc1ccc2c3c(n(C)c2c1)[C@H](CO)N(CC1CCOCC1)CC31CN(C(C)=O)C1	23	1	22
CN(C)c1ccc2c(c1)[C@@H]1C[C@H](CC(=O)O)O[C@H](CO)[C@@H]1O2	14	12	2.5
CCC(=O)N(C)C[C@@H]1[C@@H](c2ccc(-c3cccnc3)cc2)[C@H](CO)N1C(C)=O	-1	-4	3.5
COc1ccc(C#Cc2ccc([C@@H]3[C@H](CO)N4C(=O)CN(C(=O)c5ccncc5)C[C@@H]34)cc2)cc1	-7	0	-7.3
Cc1noc(C)c1NC(=O)N(C)C[C@H]1Oc2ccc(N(C)C)cc2CC(=O)N([C@@H](C)CO)C[C@@H]1C	-3	-2	-1.2
Cc1noc(C)c1NC(=O)Nc1ccc2c(c1)C(=O)N([C@@H](C)CO)C[C@H](C)[C@H](CN(C)S(=O)(=O)c1cn(C)cn1)OCCCC[C@@H](C)O2	-2	1	-2.8
CN(C)C(=O)c1cccc(-c2ccc([C@H]3[C@H](C#N)N(C(=O)C4CCC4)[C@H]3CO)cc2)c1	1	1	-0.5
CC=Cc1ccc2n(c1=O)C[C@H]1[C@H](CO)[C@@H](C(=O)NCCN3CCCC3)N(C(=O)NCCC)[C@@H]21 (mixture of isomers)	9	3	6.6
C[C@H]1CN([C@@H](C)CO)C(=O)CCCn2nncc2CO[C@@H]1CN(C)S(=O)(=O)c1cccs1	1	2	-1.0
C[C@H]1CN([C@@H](C)CO)C(=O)c2ccccc2-c2ccccc2CO[C@H]1CN(C)S(=O)(=O)c1ccccc1F	?	.	.
C[C@@H]1CCCCO[C@H](CN(C)C(=O)NC2CCCCC2)[C@H](C)CN([C@@H](C)CO)C(=O)c2cc(NC(=O)CCC(F)(F)F)ccc2O1	-1	0	-1.2
CCC(=O)NC[C@@H]1[C@@H](c2ccc(-c3ccc(OC)cc3)cc2)[C@@H](CO)N1C(C)=O	1	1	0.2
COc1ccc2c3c([nH]c2c1)[C@@H](CO)N(C(=O)Nc1cccc(F)c1)CC31CN(S(=O)(=O)c2ccccc2)C1	?	.	.
CC(=O)Nc1ccc2c(c1)C(=O)N(C)[C@H]1CC[C@@H](CC(=O)NCCCN3CCOCC3)O[C@@H]1CO2	1	-2	2.7
COCCNC(=O)[C@H]1[C@H](CO)[C@H]2Cn3c(cccc3=O)[C@H]2N1Cc1ccccc1OC	0	-1	0.5
CCNC(=O)[C@H]1[C@H](CO)[C@H]2Cn3c(cccc3=O)[C@H]2N1CC1CCCCC1	8	26	-18
C[C@@H]1CCCCO[C@H](CN(C)S(=O)(=O)c2cn(C)cn2)[C@H](C)CN([C@@H](C)CO)C(=O)c2cc(NS(=O)(=O)c3cccs3)ccc2O1	3	0	3.5
Cn1cnc(S(=O)(=O)N[C@H]2CC[C@@H](CC(=O)NCC3CCCCC3)O[C@H]2CO)c1	-6	-6	0.2
COc1ccccc1CN1CC2(C1)[C@H](c1ccccc1)[C@H](CO)N2Cc1ccccc1	?	.	.
COc1ccc(C#Cc2ccc3c(c2)[C@@H]2[C@@H](CCN2C(=O)c2ccccc2F)[C@@H](CO)N3C)cc1	?	.	.
O=C(C[C@@H]1CC[C@H]2[C@@H](COC[C@@H](O)CN2C(=O)c2ccccc2)O1)Nc1ccccc1	-3	-5	2.8
Cc1cccc(S(=O)(=O)N2C[C@H]3[C@@H](c4ccccc42)[C@@H](CO)N3CC2CCOCC2)c1	-5	1	-5.6
O=C(c1ccccn1)N1C[C@@H]2[C@H](c3ccccc31)[C@H](CO)N2C(=O)CC1CC1	1	-1	2.0
C[C@@H]1CN([C@@H](C)CO)C(=O)CCCn2cc(nn2)CO[C@@H]1CN(C)C(=O)Nc1ccccc1F	2	3	-1.0
COCCNC(=O)[C@H]1[C@H](CO)[C@H]2Cn3c(ccc(C4=CCCCC4)c3=O)[C@@H]1N2Cc1cocn1	-4	-4	-0.8
CCNC(=O)[C@H]1[C@H](CO)[C@H]2Cn3c(ccc(-c4cccc(F)c4)c3=O)[C@H]2N1C(C)=O	2	-3	5.0

Fetched one by one from the entries so far (seven):
SMILES	DUX4 txn inh	DUX4 txn inh difference	DUX4 txn inh control
COCCNC(=O)[C@H]1[C@H](CO)[C@H]2Cn3c(ccc(C4=CCCCC4)c3=O)[C@@H]1N2Cc1cocn1	-4	-4	-0.8
CCC(=O)NC[C@@H]1[C@@H](c2ccc(-c3ccc(OC)cc3)cc2)[C@@H](CO)N1C(C)=O	1	1	0.2
COc1ccc2c3c([nH]c2c1)[C@@H](CO)N(C(=O)Nc1cccc(F)c1)CC31CN(S(=O)(=O)c2ccccc2)C1	?	.	.
C[C@H]1CN([C@@H](C)CO)C(=O)CCCn2nncc2CO[C@@H]1CN(C)S(=O)(=O)c1cccs1	1	2	-1.0
C[C@@H]1CN([C@@H](C)CO)C(=O)CCCn2cc(nn2)CO[C@@H]1CN(C)C(=O)Nc1ccccc1F	2	3	-1.0
COc1ccc(C#Cc2ccc3c(c2)[C@@H]2[C@@H](CCN2C(=O)c2ccccc2F)[C@@H](CO)N3C)cc1	?	.	.
C[C@@H]1CCCCO[C@H](CN(C)S(=O)(=O)c2cn(C)cn2)[C@H](C)CN([C@@H](C)CO)C(=O)c2cc(NS(=O)(=O)c3cccs3)ccc2O1	3	0	3.5

In a second layout: results already given
COc1ccc2c3c([nH]c2c1)[C@@H](CO)N(C(=O)Nc1cccc(F)c1)CC31CN(S(=O)(=O)c2ccccc2)C1
  DUX4 txn inh = ?; DUX4 txn inh difference = .; DUX4 txn inh control = .
CC(=O)Nc1ccc2c(c1)C(=O)N(C)[C@H]1CC[C@@H](CC(=O)NCCCN3CCOCC3)O[C@@H]1CO2
  DUX4 txn inh = 1; DUX4 txn inh difference = -2; DUX4 txn inh control = 2.7

From PubChem BioAssay

Some of the compounds tested; rates above refer to the full screens.
